Screening results as filed in PubChem.
GIV Gai3 FP: inhibitors of GIV peptide binding to Galpha-i3, primary screen, biochemical, fluorescence polarization, FITC-GIV GBA peptide, rat Galphai3 | Guanine nucleotide-binding protein G(i) subunit alpha-3 (Rattus norvegicus), P08753 | 90 min; hits give low values; scaled: aluminum fluoride 0%, vehicle 100% | percent of control (FP), % (concentration not given with the values) | 0.42% of 210,000 active | AID 1224905, 2016;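 active = replicate mean at 85% of control or lower, very high polarization wells dropped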;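 also: wells of about 15 µL received 100 nL stock; the first replicate is given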
Target sequence (P08753 whole entry, looked up): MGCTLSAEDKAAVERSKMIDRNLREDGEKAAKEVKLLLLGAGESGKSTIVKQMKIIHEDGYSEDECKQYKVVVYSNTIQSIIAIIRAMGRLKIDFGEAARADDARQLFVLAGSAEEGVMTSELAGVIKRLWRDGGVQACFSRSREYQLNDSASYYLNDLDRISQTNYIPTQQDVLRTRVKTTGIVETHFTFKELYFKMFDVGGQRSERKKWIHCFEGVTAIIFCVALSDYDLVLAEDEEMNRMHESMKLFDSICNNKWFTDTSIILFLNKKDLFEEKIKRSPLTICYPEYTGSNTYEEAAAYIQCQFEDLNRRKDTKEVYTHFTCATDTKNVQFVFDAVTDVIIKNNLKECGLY
* = called active by the depositor. The list is partial; count on the stated rates, not on these rows.

GIV Gai3 FP | SMILES
110 | Cn1c(=O)c2nc3ccc(NC(=O)c4ccccc4)cc3nc2n(C)c1=O
100 | Cc1ccc(S(=O)(=O)N2CCN(S(=O)(=O)c3ccccc3)C2c2ccc(N(C)C)cc2)cc1 (configuration not stated)
104 | O=[N+]([O-])c1ccc(Nc2nc(NCc3ccco3)nc(Nc3ccc(Cl)cc3)n2)cc1
96 | Fc1ccc(-c2nc(-c3ccc(-n4ccnc4)nc3)no2)cc1F
106 | Cc1nc(N2CCC(C)CC2)c2c(C)c(C(=O)N3CCN(c4ccccn4)CC3)sc2n1
110 | COc1cc2c(C(=O)Oc3ccc4cnccc4c3)cn(-c3ccccc3)c(=O)c2cc1OC
98 | O=C(NCC1CCCCC1)C1CCN(c2cnc(N3CCCC3)nc2)CC1
105 | COc1cc(/C=N/n2cnnc2-n2nc(C)cc2C)cc(Br)c1O
106 | CCCc1cc(Sc2ccc(NC(=O)C(C)(C)C)cc2)n2ncnc2n1
106 | C=CCN1C(=O)/C(=c2/s/c(=C\C=C3\Sc4ccc(OC)cc4N3CC)c(=O)n2CC)SC1=S
103 | O=C(NCCc1c[nH]c2ccc(OCc3ccccc3)cc12)c1ccc(Cl)cc1
103 | CC(=O)N1CCCN(S(C)(=O)=O)CC1
113 | Cc1ccc(Sc2nccnc2SCC(=O)NCCC2=CCCCC2)cc1
101 | Cc1cccn2c(=O)c(C(=O)NCC3CCCO3)cnc12 (configuration not stated)
109 | Cc1csc(-c2cc(S(=O)(=O)NC3CC3)cn2CC(=O)N2CCCCC2)n1
99 | Cc1ccc(-c2ccc(OCCNS(=O)(=O)N(C)C)nn2)cc1
104 | COC(=O)c1c(-c2cccc(F)c2)noc1NC1CCS(=O)(=O)C1 (configuration not stated)
105 | CCOC(=O)c1ccc(-c2sc3nc(N4CCOCC4)c4c(c3c2N)CC(C)(C)OC4)o1
99 | Cn1c(C2CCN(C(=O)c3ccc(C(F)(F)F)s3)C2)nc2cccnc21 (configuration not stated)
103 | CCOc1ccc(N2C(=O)/C(=C\c3ccc(C)o3)S(=O)(=O)C2c2cccc([N+](=O)[O-])c2)cc1 (configuration not stated)
104 | Cc1cc(C)n(C(=O)C(Cc2ccccc2)N2C(=O)C3CCCCC3C2=O)n1 (configuration not stated)
102 | Cn1nnc2cc(-c3noc(COc4ccc(Cl)cc4)n3)ccc21
108 | CCOc1ccc(-c2csc(Cc3nc(-c4cccc(Cl)c4)no3)n2)cc1
101 | COc1cc(OC)c(-n2nnc(-c3nsc(Nc4ccc(OC)c(OC)c4)n3)c2C)cc1Cl
105 | Cc1sc(-c2nc(C(C)C)cs2)cc1S(=O)(=O)NC1CCCC1
110 | O=C(CCCn1c(SCc2cc(=O)n3cc(Cl)ccc3n2)nc2ccccc2c1=O)NCC1CCCO1 (configuration not stated)
101 | CCc1ccc(NS(=O)(=O)c2cc(-c3nc(C(C)C)cs3)cs2)cc1
119 | O=C1C(Nc2ccccc2)=CC(c2ccccc2F)N1c1ccccc1 (configuration not stated)
97 | Cc1ccccc1CNC1=NCCNC12CCCC(C)C2 (configuration not stated)
102 | COc1ccccc1C(NC(=O)c1cc(OC)c(OC)c(OC)c1)c1cc(Cl)c2cccnc2c1O (configuration not stated)

The list goes on:
GIV Gai3 FP | SMILES
113 | CCN1CCN(C2=NC(=O)/C(=C\c3ccc(OC)cc3)S2)CC1
112 | C=CCn1c(SCC(=O)NCCc2ccccc2)nc2cc(C(=O)NCc3ccco3)ccc2c1=O
102 | CCOC(=O)C1=CN(Cc2ccc(OC)cc2)C=C(C(=O)OCC)C1c1cc(Br)c(OCC)c(OC)c1
106 | CCOC(=O)c1cc2c(nc1C)-c1ccc([N+](=O)[O-])cc1C2=O
102 | COC(=O)c1ccc(NC(=O)CSc2nnc(NC(=O)NC3CCCCC3)s2)cc1
105 | O=C(c1ccc2c(c1)[nH]c(=S)n1c3ccccc3nc21)N1CCCC1
104 | Cn1cc2c(n1)c(=O)n(Cc1ccc(F)cc1)c1nn(Cc3ccc(F)cc3)c(=O)n21
114 | CCC1=NN(C(=O)c2ccc(Br)cc2)C(O)(c2ccc(OC)cc2)C1 (configuration not stated)
108 | Cc1ccc(C2=Nc3ccccc3N=C(c3ccc(C)cc3O)C2)cc1
101 | Cc1ccc(C2(O)CN(c3ccccc3C)C3=[N+]2CCCS3)c(C)c1 (configuration not stated)
118 | COc1cc(C=Nc2c(C)n(C)n(-c3ccccc3)c2=O)ccc1OCC#N
102 | COc1ccc(C(=O)Nc2ccccc2SCc2nnc(-c3ccccc3)o2)cc1
102 | CC(=O)N[C@H]1[C@H](OCc2ccccc2F)O[C@H](COC(C)=O)[C@@H](OC(C)=O)[C@@H]1OC(C)=O
105 | O=C(CSc1nc2ccccc2nc1Cc1ccc(Cl)cc1)N1CCNC1=O
104 | COc1ccc(C2=Nc3ccccc3N=C(c3cc(C)ccc3O)C2)cc1
110 | COc1ccc(S(=O)(=O)N(CC(=O)NCCc2ccc(OC)c(OC)c2)c2ccc(C)cc2)cc1
98 | COc1ccccc1N1CCN(c2ncnc3sc(C(=O)Nc4ccc5c(c4)OCCO5)c(C)c23)CC1
132 | COc1ccc(/C=C2\CCCC3=C2OC(N)=C(C#N)C3c2ccc(OC)cc2)cc1 (configuration not stated)
115 | COc1ccc(-c2cc(C(F)(F)F)n3nc(C(=O)Nc4cc(C)ns4)cc3n2)cc1OC
101 | O=C1CSC(c2ccc(F)c(F)c2)Nc2cccc3cccc1c23 (configuration not stated)
102 | O=C(NCCN1CCCC1)c1ccc2nc(-c3ccc(F)cc3)c(-c3ccc(F)cc3)nc2c1
120 | CC1(C)CC(=O)C2=C(C1)Nc1c(ccc3ccccc13)C2c1ccc2c(c1)OCO2 (configuration not stated)
100 | Cc1cc(C2CCCN2S(C)(=O)=O)on1 (configuration not stated)
101 | COC(=O)c1ccc2c(=O)n(-c3cc(C)cc(C)c3)c(N3CCOCC3)nc2c1
103 | Brc1ccccc1-c1nnc2ccc3ccccc3n12
103 | COc1cccc(NS(=O)(=O)c2cc(C(=O)N3CCN(c4ccccc4)CC3)ccc2NCc2ccccc2OC)c1
98 | CC(C)NC(=O)N1CCCN(S(=O)(=O)C(C)C)CC1
129 | CCOC(=O)C1=C(CSc2nc(-c3cccs3)ccc2C#N)OC(N)=C(C#N)C1c1ccc(C#N)cc1 (configuration not stated)
105 | CCCS(=O)(=O)c1c(S(=O)(=O)CCC)c2c(C(N)=O)cccn2c1C(=O)c1ccc(F)cc1
112 | Cn1c(CC(=O)Nc2ccc(Cl)cc2)c(Sc2ccccc2)c2ccccc21

A few values from the list.
GIV Gai3 FP with O=C1CSC(c2ccc(F)c(F)c2)Nc2cccc3cccc1c23 (configuration not stated) = 101
GIV Gai3 FP with CCOC(=O)c1cc2c(nc1C)-c1ccc([N+](=O)[O-])cc1C2=O = 106
GIV Gai3 FP with Cc1ccc(C2=Nc3ccccc3N=C(c3ccc(C)cc3O)C2)cc1 = 108

Later entries:
GIV Gai3 FP | SMILES
107 | COCC(=O)Nc1ccc(-c2nc3ccccc3s2)cc1
101 | COc1ccc(-c2csc(NC(=O)c3cc4cc(Br)ccc4oc3=O)n2)cc1
104 | CC1=NOC(C)(CNC(=O)NC2CCCC2)C1 (configuration not stated)
109 | COc1ccc(/C=C2\N=C(c3ccc(Cl)cc3)N(c3ccc(C)cc3C)C2=O)cc1OC
109 | COc1ccc(CNC(=O)c2cnn3c(C)c(Cc4ccccc4Br)c(C)nc23)cc1
102 | CCOc1cccc2c1OC(c1cccc(Cl)c1)N1N=C(c3ccc(F)cc3)CC21 (configuration not stated)
107 | CCOc1ccc(NC(=O)CSc2nc(N3CCCCC3)nc3ccccc23)cc1
121 | CCOc1ccc(NC(=O)C2CC(=O)N(CC)C(=Nc3ccc(C)c(C)c3)S2)cc1 (configuration not stated)
106 | CCN1C(=O)c2ccc(S(=O)(=O)N3CCCCCC3)c3cccc1c23
110 | O=S(=O)(c1ccccc1)c1nc(C(c2ccccc2)c2ccccc2)oc1N1CCCCC1
106 | CCCn1c(SCc2nc(-c3ccc(C)cc3)no2)nc2cc3c(cc2c1=O)OCO3
101 | COc1ccc(C2N(S(=O)(=O)c3ccc(C)cc3)CCN2S(=O)(=O)c2ccc(C)cc2)cc1
103 | COc1cc(C2C(C#N)=C(N)Oc3n[nH]c(-c4ccc(Br)cc4)c32)cc(OC)c1OC(=O)N1CCOCC1 (configuration not stated)
102 | CCCCn1nc2c(S(=O)(=O)N3CCN(c4ccc(F)cc4)CC3)cccn2c1=O
102 | O=C(CSc1ccccc1)N1CCc2c([nH]c3ccccc23)C1c1ccccc1 (configuration not stated)
105 | CCOc1ccc(Nc2ccc(-c3ccc(C)c(S(=O)(=O)N4CCCC4)c3)nn2)cc1
109 | Cc1ccc(NC(=O)CSc2nc3ccccc3c(=O)n2CCc2ccc(S(N)(=O)=O)cc2)cc1Cl
102 | C=Cc1ccc(Cn2c(=O)c3cnc(-c4cccnc4)nc3n(C)c2=O)cc1
115 | CC1CCN(c2cc(C(=O)O)c3cc(N)ccc3n2)CC1
115 | CCOC(=O)c1sc2nc(N3CCOCC3)c3c(c2c1N)CCN(C)C3
111 | COc1cc(NC(=O)N2CCCC2c2cc(C(C)C)on2)cc(OC)c1OC (configuration not stated)
107 | N#CC1=C(SCC(=O)NCc2ccccc2)NC2=C(C(=O)CCC2)C1c1ccc2c(c1)OCO2 (configuration not stated)
110 | C/C=C/Cc1c(C)nc(SCc2c(C(=O)OCC)c3cc(O)c(Br)cc3n2C)c(C#N)c1C
114 | CC1(C)CC2(CC(C)(c3csc(Nc4ccccc4)n3)OC2=O)C(=O)O1 (configuration not stated)
111 | CCCNC(=O)N1CCCC1c1cc(C)no1 (configuration not stated)
105 | CCc1cccc(C)c1-n1nnnc1C(C)(C)N(C)C
96 | Cc1ccccc1N1CC(O)(c2ccc(OC(F)F)cc2)[N+]2=C1SCCC2 (configuration not stated)
102 | Cc1ccc(C2=NN(CC(=O)N3CCC(Cc4ccccc4)CC3)C(=O)CC2)cc1
105 | Cc1cc(-c2csc(S(=O)(=O)N3CCN(CCOc4ccc(Cl)cc4)CC3)c2)on1
101 | CCC(Sc1nc(Nc2ccc(F)cc2)c2ccccc2n1)C(=O)NCCCOC (configuration not stated)

The last five compounds of the section before come first, to join the parts:
GIV Gai3 FP | SMILES
105 | CCc1cccc(C)c1-n1nnnc1C(C)(C)N(C)C
96 | Cc1ccccc1N1CC(O)(c2ccc(OC(F)F)cc2)[N+]2=C1SCCC2 (configuration not stated)
102 | Cc1ccc(C2=NN(CC(=O)N3CCC(Cc4ccccc4)CC3)C(=O)CC2)cc1
105 | Cc1cc(-c2csc(S(=O)(=O)N3CCN(CCOc4ccc(Cl)cc4)CC3)c2)on1
101 | CCC(Sc1nc(Nc2ccc(F)cc2)c2ccccc2n1)C(=O)NCCCOC (configuration not stated)
97 | CNC(=O)Nc1ccc(C2(C(=O)NC(C)c3ccc(C)cc3C)CCC2)cc1 (configuration not stated)
115 | NCCC(=O)N1c2ccccc2Sc2ccc(C(F)(F)F)cc21
111 | CC1(C)SC(=S)N(/N=C/c2ccco2)C1N(O)C(=O)Nc1ccccc1 (configuration not stated)
102 | CCOC(=O)C1=C(O)/C(=C/c2ccccc2)SC1=Nc1ccc([N+](=O)[O-])cc1
127 | N#CC1=C(N)Oc2n[nH]c(-c3ccc(Cl)cc3)c2C1c1cn[nH]c1-c1ccc(F)cc1 (configuration not stated)
105 | Cc1ccc2c(c1)Oc1ccc(S(=O)(=O)N3CCCCC3)cc1C(=O)N2
104 | CCOc1ccc2c(c1)-c1c(ssc1=Nc1cccc(F)c1)C(C)(C)N2
100 | Cc1ccc(NC(=O)C2CCCN2S(=O)(=O)c2cc3c(cc2C)NC(=O)CO3)cc1Cl (configuration not stated)
105 | CCCCC(=O)Nc1cccc(Oc2nc(C)c(Cl)c(C)c2C#N)c1
107 | O=C(Nc1cnc(N2CCN(c3ccccc3)CC2)c(C(=O)O)c1)c1ccc(Cl)cc1
98 | CC1CCN(S(=O)(=O)c2ccc3nn(CC#N)c(=O)n3c2)CC1
110 | CCCCC(=O)Nc1cnc(N2CCN(c3cc(Cl)ccc3C)CC2)c(C(=O)O)c1
102 | O=c1cc(CN(Cc2ccccc2)Cc2ccccc2)nc2sccn12
99 | COc1ccc(-c2noc(-c3nn(-c4ccc(C)cc4)ccc3=O)n2)cc1
106 | COc1ccc(-c2noc3ncnc(N4CCC(C(=O)NC5CC5)CC4)c23)cc1
100 | COc1ccc(-c2nc3ccc(C(=O)NC4CCCC4)cc3nc2-c2ccc(OC)c(OC)c2)cc1OC
127 | Cc1nc2sccn2c(=O)c1[N+](=O)[O-]
107 | O=C1c2ccccc2C(=O)N1C1C(=O)N(c2ccc(Cl)cc2)C1c1ccc(F)cc1 (configuration not stated)
103 | Cc1cc(-c2ccc(=O)[nH]n2)cc(S(=O)(=O)N2CCC(Cc3ccccc3)CC2)c1C
100 | COc1ccc(C2(O)CN(c3ccccc3)C3=[N+]2CCCS3)c(F)c1 (configuration not stated)
106 | COc1ccc(/C=C2/SC(=Nc3cccc(C)c3)NC2=O)cc1Br
117 | CCC(=O)N(C)C1(c2nnnn2-c2cccc(Cl)c2)CCC(C)CC1 (configuration not stated)
96 | CNC(=O)c1ccc(-c2nc3cc(NS(=O)(=O)c4cc(F)ccc4F)ccc3n2C)cc1
108 | O=C1/C(=C/c2ccc(Cl)cc2)C=C(c2ccccc2)N1c1ccc2ccccc2c1
128 | Cc1ccccc1-n1c(-c2ccc(Br)cc2)cn2c3c(=O)n(C)c(=O)n(C)c3nc12
106 | CCc1ccccc1NC(=O)c1ccc(F)c(S(=O)(=O)N2CCc3ccccc3C2)c1
105 | COc1cc(Nc2nc(SCC(=O)NCC3CCCO3)nc3ccccc23)cc(OC)c1 (configuration not stated)
103 | CCCN1CCN(S(=O)(=O)c2cc(-c3cc(C(F)(F)F)[nH]n3)sc2C)CC1
98 | Cc1cccc(C(=O)N2CCCc3cc(C(N)=O)ccc32)c1

A second format for some results above.
Cc1sc(-c2nc(C(C)C)cs2)cc1S(=O)(=O)NC1CCCC1
  GIV Gai3 FP = 105
O=C(NCCc1c[nH]c2ccc(OCc3ccccc3)cc12)c1ccc(Cl)cc1
  GIV Gai3 FP = 103
Cc1ccccc1CNC1=NCCNC12CCCC(C)C2 (configuration not stated)
  GIV Gai3 FP = 97
O=S(=O)(c1ccccc1)c1nc(C(c2ccccc2)c2ccccc2)oc1N1CCCCC1
  GIV Gai3 FP = 110
